# Bioassay records (PubChem)
# UCH37 inh: inhibitors of human deubiquitinating enzyme UCH37; Q9Y5K5; purified proteasome/UCH37, Ub-AMC cleavage fluorescence; inhibition, % (concentration not given with the values); actives 0.33% (n = 330,000);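 active means mean of two replicates above 20%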;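 further: 0% = compound-free wells with enzyme and 100% = wells lacking proteasome; stock transfer was 100 nL into about 20 µL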
#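 Signal – fluorescence, ex 355 nm, em 460 nm · System – Proteasome-bound UCH37 · Input – 0.15 nM proteasome as dispensed · Timing – 30 min preincubation with enzyme, 25 min cleavage at room temperature · Read-out basis – percent inhibition of cleavage signal versus uninhibited and no-proteasome wells · Medium – Tris-HCl pH 7.4 with ATP-MgCl2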
# MLL AF4-AF9 inh: blocks AF4 peptide binding to human AF9. P42568. AlphaScreen, biotin-AF4 peptide binding to FLAG-AF9. inhibition, % at 10 µM. actives 0.47% (n = 350,000). AID 651704;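 active means every replicate reaching a set inhibition limit, whatever the replicate mean, cut at about 25% in these data; inconclusive means mean inhibition reaches that limit but some replicates miss it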;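 further: 0% = plate neutral control median and 100% = total signal loss; the record names both 10 and 1 µM as test concentration; the first replicate is given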
# Target sequence (P42568 whole entry, looked up): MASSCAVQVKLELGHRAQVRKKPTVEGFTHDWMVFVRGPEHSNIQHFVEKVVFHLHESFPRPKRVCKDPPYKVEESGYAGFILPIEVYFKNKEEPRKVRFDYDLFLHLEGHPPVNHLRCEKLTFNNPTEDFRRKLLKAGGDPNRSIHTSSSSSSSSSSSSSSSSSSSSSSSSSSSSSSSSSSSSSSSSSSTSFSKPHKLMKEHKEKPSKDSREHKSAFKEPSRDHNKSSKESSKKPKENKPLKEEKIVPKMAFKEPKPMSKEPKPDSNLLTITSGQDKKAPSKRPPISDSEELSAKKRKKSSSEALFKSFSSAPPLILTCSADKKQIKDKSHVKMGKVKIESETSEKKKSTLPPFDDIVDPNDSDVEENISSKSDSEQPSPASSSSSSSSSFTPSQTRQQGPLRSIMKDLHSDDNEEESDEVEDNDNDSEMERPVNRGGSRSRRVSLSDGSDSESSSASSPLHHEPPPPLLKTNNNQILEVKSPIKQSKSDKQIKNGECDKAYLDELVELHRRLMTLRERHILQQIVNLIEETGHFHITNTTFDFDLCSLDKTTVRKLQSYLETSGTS
# RanGTP-Impb inh: inhibitors of RanGTP-importin-beta interaction, primary screen, biochemical, FRET, CFP-Ran, YFP-importin-beta, homogeneous; actives 1.1% (n = 300,000); cell-free CFP-Ran/YFP-importin-beta FRET ratio; inhibition, % (concentration not given with the values); AID 2216;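 active means most replicates above 15%; inconclusive means exactly half above 15%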;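 further: 0% = DMSO wells and 100% = Ran loaded with GDP instead of GTP; wells of about 40 µL received 100 nL stock; the first replicate is given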
# FGF22 binding: shifts melting point of recombinant human FGF22; Q9HCT0; recombinant FGF22 thermal shift, SYPRO orange fluorescence; percent of sucrose octasulfate shift, DMSO zero; actives 1.5% (n = 340,000); calls only at 9.99 µM;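 active means melting point raised past a set limit in the mean and every replicate; inconclusive means no clear call; three in four hits are not shown here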
# Ecoli growth: E. coli growth inhibition. Escherichia coli growth, OD600, 23 h; stronger effect = lower value. OD600 absorbance (concentration not given with the values). actives 0.21% (n = 330,000). AID 1053175;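 active means OD600 absorbance below the run mean of sample wells minus 3.6 SD, in any replicate, cut at about 0.56 in these data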;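 further: stock transfer was 300 nL into about 60 µL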
# HNF4A DNA FP: change in binding of human HNF4 alpha to DNA; activity change, % at 10 µM; P41235; HNF4a-FITC DNA binding, fluorescence polarization, 1 h; actives 0.3% (n = 360,000); in the data active means activity change above about 30%, passing the limit was not always enough;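 further: controls were the assay level and a saturating level of protein; the project sought stronger binding though the title names inhibitors; some compounds called inactive have numbers as strong as hits; positive values seem to mean higher polarization but the record does not say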
# Target sequence (P41235 whole entry, looked up): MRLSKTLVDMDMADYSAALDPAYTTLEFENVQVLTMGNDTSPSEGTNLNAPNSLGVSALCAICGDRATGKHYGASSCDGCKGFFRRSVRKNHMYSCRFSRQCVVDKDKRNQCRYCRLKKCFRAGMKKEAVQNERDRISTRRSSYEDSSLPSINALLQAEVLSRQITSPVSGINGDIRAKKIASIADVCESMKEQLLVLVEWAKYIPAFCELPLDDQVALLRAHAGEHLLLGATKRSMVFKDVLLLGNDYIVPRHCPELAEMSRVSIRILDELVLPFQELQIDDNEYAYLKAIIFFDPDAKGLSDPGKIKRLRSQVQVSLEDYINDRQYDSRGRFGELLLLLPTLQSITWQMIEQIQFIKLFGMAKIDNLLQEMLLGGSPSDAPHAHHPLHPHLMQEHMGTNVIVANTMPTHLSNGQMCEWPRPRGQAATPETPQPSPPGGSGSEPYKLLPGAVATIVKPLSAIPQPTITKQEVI
# Vif A3G: HIV-1 Vif–A3G interaction blockers – biochemical, TR-FRET, GST-Vif 1-94, biotin-A3G peptide, dose response retest, primary screen (AID 1117319); TR-FRET GST-Vif / biotin-A3G peptide binding; higher % means a stronger effect; test concentration not given here; strong numbers were not always called active; actives 0.57% (n = 260,000); inhibition, %; hits with a dose series show IC50 in µM;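 active means above the screen mean plus three standard deviations and confirmed in dose response; inconclusive means results disagree or hit not tested in dose response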;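 further: Vif residues 1-94 fused to GST binding biotinylated APOBEC3G peptide 110-148; 0% = full assay without inhibitor and 100% = GST in place of GST-Vif; retest series ran down from 100 µM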
# * hit, by the source's call; i = inactive; u = inconclusive; x = no result given; + = active, no number; & = joins results of further samples; ! = a repeat was not active. Not all compounds are listed (hit frequency here may not be typical).
# The opening 3 records, to show the layout:
SMILES,UCH37 inh,MLL AF4-AF9 inh,RanGTP-Impb inh,FGF22 binding,Ecoli growth,HNF4A DNA FP,Vif A3G
Cc1ccc2cn[nH]c2c1N,-2.4,7.0,0.5,i,0.67,-0.3,u
CCOC(=O)CSc1nnc(NC(=O)CN2CCCCC2)s1,5.8,2.0,-12,i,0.69,0.8,0%
N/C(CSc1ccc(Cl)cc1)=N\S(=O)(=O)c1ccc(Cl)cc1,3.3,-1.5,-2.5,i,0.7,-1.3,x

# Results, previewed entries included:
SMILES,UCH37 inh,MLL AF4-AF9 inh,RanGTP-Impb inh,FGF22 binding,Ecoli growth,HNF4A DNA FP,Vif A3G
Cc1ccc2cn[nH]c2c1N,-2.4,7.0,0.5,i,0.67,-0.3,u
CCOC(=O)CSc1nnc(NC(=O)CN2CCCCC2)s1,5.8,2.0,-12,i,0.69,0.8,0%
N/C(CSc1ccc(Cl)cc1)=N\S(=O)(=O)c1ccc(Cl)cc1,3.3,-1.5,-2.5,i,0.7,-1.3,x
CNc1nc(N)c([N+](=O)[O-])c(NCc2ccccc2)n1,8.2,2.7,1.8,i,0.64,0.1,x
CCOc1ccc(N2C(=O)Nc3ccccc3C2(O)C(=O)N2CCN(c3ccccn3)CC2)cc1 (centres undefined),2.9,-0.2,-0.7,i,0.69,-2.3,19%
Cc1ccc(Cn2ccc(NC(=O)c3cc(-c4cccc(Cl)c4)on3)n2)cc1,-1.7,4.8,-4.6,i,0.67,3.4,67%
Cc1c(NC(=O)c2cccs2)cccc1-c1nc2ccccc2s1,3.4,x,-6.2,x,0.7,0.6,x
Cc1ccc(C(=O)C2=C(O)C(=O)N(Cc3cccnc3)C2c2cccc([N+](=O)[O-])c2)o1 (centres undefined),11,1.0,11,i,0.66,-2.7,8%
Cc1ccc(S(=O)(=O)Oc2ccc(/C=C(/NC(=O)c3ccccc3)C(=O)NCCCC(=O)O)cc2)cc1,6.0,0.1,1.5,i,0.71,-1.2,x
COc1ccccc1CCC(=O)NCCCn1ccc2ccccc21,-0.5,-0.1,2.3,i,0.68,1.4,x
Cc1ccc(NC(=O)NC(=O)CN2CCC(C(N)=O)CC2)c(C)c1,1.8,-0.6,x,i,0.67,0.3,x
COc1ccc(OC)c2sc(N(CCN(C)C)C(=O)c3ccc4ccccc4c3)nc12,x,28*,1.5,i,x,5.8,x
O=C(Nc1ccc(-c2nnn(CC(=O)N3CCN(C(=O)c4ccco4)CC3)n2)cc1)c1ccccc1F,-9.6,-1.5,1.2,i,0.68,x,-5%
COc1cccc(CNc2ccc3[nH]c(=O)[nH]c3c2)c1OCc1ccccc1F,-1.0,41*,7.9,i,0.7,-0.3,x
C[C@H](N)c1nnc(SCc2c(Cl)cccc2Cl)o1,-1.4,x,0.3,x,0.68,6.5,2%
CC(=O)O[C@H]1CC[C@@]2(C)[C@@H](CC[C@H]3[C@@H]4CC[C@H](C(C)O)[C@@]4(C)CC(=O)[C@@H]32)C1 (some centres undefined),-2.0,-0.2,0.4,i,x,-2.8,x
CC[C@]12c3[nH]c4ccc(Cl)cc4c3CCN1C(=O)[C@@H](CC(=O)NC/C=C(\C)CCC=C(C)C)C[C@@H]2C(=O)N1CCN(C(=O)C2CC2)CC1,1.4,3.7,x,i,0.72,-0.3,4%
Cc1cc(C)nc(Nc2nc(C(N)Cc3ccc(Cl)cc3)cs2)n1 (centres undefined),x,14,x,i,x,1.9,x
CC1=NS(=O)(=O)c2cc(Cl)ccc2N1,2.3,3.1,2.9,i,0.65,-2.8,x
O=C(O)C1CCN(S(=O)(=O)N2CCOCC2)CC1,-0.8,x,9.2,x,0.67,-4.8,3%
Cc1ccc(C(C)NC(=O)c2cc3cc(Br)ccc3oc2=N)cc1 (centres undefined),1.0,0.9,6.0,i,0.69,5.3,-2%
Cc1nonc1C(=O)N/N=C/c1ccccc1,x,1.9,-1.7,i,x,2.4,x
Cc1ccc(Nc2nc(C)cc(C)n2)c(Br)c1,-1.5,x,2.5,x,0.7,-2.4,6%
O=C(Nc1nnc(-c2ccc3c(c2)CCCC3)o1)c1ccc(Cl)cc1Cl,-6.1,2.0,4.3,i,0.76,-1.8,-1%
Cc1ccc2c(c1)C1CN(C)CCC1N2C(=O)COc1ccc(N(C)S(=O)(=O)c2cccs2)cc1 (centres undefined),1.4,17,-1.9,i,0.7,-2.1,5%
SMILES,UCH37 inh,MLL AF4-AF9 inh,RanGTP-Impb inh,FGF22 binding,Ecoli growth,HNF4A DNA FP,Vif A3G
CC(C)=C[C@@H]1C[C@H](C)[C@H]2CC[C@H](C)c3c(O[C@@H]4O[C@@H](C)[C@@H](O)[C@@H](O)[C@@H]4O)c(O)c(C)c1c32,0.4,x,x,x,0.79,-1.4,x
COc1ccc(OCC(=O)O/N=C(\N)c2ccc(OC)c(OC)c2)cc1,0.1,x,2.9,x,0.72,4.5,x
COc1ccc(NC(=O)C(C)N2C(=O)c3ccccc3S2(=O)=O)c(OC)c1 (centres undefined),3.2,-0.4,0.8,i,0.63,-4.1,0%
CC1CN(C(=O)c2cc(-c3ccncc3)nc3ccccc23)CC(C)O1 (centres undefined),3.0,-4.5,x,i,0.72,-2.1,-12%
COCCNC(=O)NC(=O)COC(=O)c1cc([N+](=O)[O-])ccc1Sc1nc(C)cs1,5.0,x,-2.0,x,0.68,2.2,-1%
Cn1c(Cc2cccc3ccccc23)nnc1SCC(=O)N1CCN(c2cccc(Cl)c2)CC1,2.1,x,5.6,x,0.75,-1.9,5%
Cc1ccc(C)c(N2CCN(S(=O)(=O)c3cn(C)cn3)CC2)c1,2.3,-8.3,6.0,i,0.66,1.6,x
O=C(CNC(=O)Cc1ccccc1)NCC(=O)OCC(=O)c1ccc(F)cc1,1.3,0.5,-6.3,i,0.66,-2.2,-12%
O=c1c2ccccc2nnn1CCO,-1.8,-1.1,3.0,i,0.65,-3.7,24%
CCCCCCCCCCCCCCCC[n+]1cccc(C(=O)N(CC)CC)c1,58*!,4.4,-0.2,i,0.43*,3.5&15,-4%&-3%
CSCCC(NC(=O)COc1ccccc1)C(=O)OCCOc1ccc(Br)cc1 (centres undefined),0.6,0.7,5.1,i,0.55,-1.6,0%
CCC(=O)Nc1cnc(NC(=O)c2cccc(F)c2)cc1C,1.5,x,2.7,x,0.66,2.0,15%
CCc1ccc(C2=CSC3=NCCN23)cc1,1.0,u,-1.8,i,0.65,-2.8,-2%
COc1cc(/C=N/NC(=O)C[n+]2ccccc2)cc(OC)c1OC(C)=O,x,0.7,-1.9,i,x,-4.2,31%
CC(C)CN(CC(C)C)c1nnc(NC(=O)Cn2c(=O)oc3ccccc32)s1,5.2,-2.2,-5.1,i,0.76,1.1,2%
CCCCN(CC)CCCNC(=O)Cn1nc(Cc2cccnc2)c2ccccc2c1=O,2.2,x,-4.5,x,0.66,-0.3,2%
CCOC(=O)C1CCN(S(=O)(=O)c2ccc3c(ccn3C)c2)CC1,0.3,-3.5,5.0,i,0.68,3.5,x
CC(C)(C)c1ccccc1OCCCCCNCCO,4.0,x,0.7,x,0.67,1.8,-1%
CC1(C(=O)NS(=O)(=O)c2ccc(Br)cc2)CCN1C(=O)CCc1cccs1 (centres undefined),x,-3.8,x,i,x,-2.4,x
O=C(CCCCn1c(=O)[nH]c2ccccc2c1=O)NCCc1c[nH]c2ccccc12,3.6,-2.8,3.2,i,0.7,0.2,u
COc1cc(O)c2c(=O)c(-c3ccc(O[C@@H]4O[C@H](CO)[C@@H](O)[C@H](O)[C@H]4O)cc3)coc2c1,3.0,-3.8,-2.5,i,0.63,2.7,8%
Cc1ccc(S(=O)(=O)NCc2ccco2)c(C)c1C,-6.5,x,4.2,x,0.69,-0.9,-5%
Cc1ccc(N2CC(C(=O)OCC(=O)Nc3c(C)cccc3C)CC2=O)cc1 (centres undefined),x,-1.2,x,i,x,4.7,x
COc1ccc(N(C)C(=O)c2ccc3c(c2)nnn3C)cc1,2.5,0.3,6.1,i,0.74,-0.4,-8%
N#Cc1c(N2CCN(c3ccc(F)cc3)CC2)nc(N)c2c(N)nc3c(c12)CC(=O)N3C1CC1,-15,0.2,x,i,0.69,3.7,1%
SMILES,UCH37 inh,MLL AF4-AF9 inh,RanGTP-Impb inh,FGF22 binding,Ecoli growth,HNF4A DNA FP,Vif A3G
Cc1cc(NC(=O)c2cc(-c3ccco3)on2)nn1Cc1ccc(Cl)cc1,0.7,x,2.3,x,0.73,12,31%
COc1ccc2[nH]c3c(NCCCN4CCCC4=O)ncnc3c2c1,-381,x,-5.7,x,0.65,4.4,-3%
Cc1cc(NC(=O)c2cc(-c3ccco3)on2)n(-c2ccccc2)n1,-1.1,x,-0.8,x,0.69,2.9,30%
O=C(Nc1ccc(F)cc1F)C1(c2cccs2)CCOCC1,0.5,-13,-5.1,i,0.72,2.4,-4%
CCc1nn(CCCC(=O)Nc2ccc(C)c(C)c2)c(=O)c2cc3occc3n12,-2.6,-1.0,-0.7,i,0.64,6.9,1%
COC(=O)c1sc(NC(C)=O)c(C(=O)OC)c1C,5.1,x,-2.6,x,0.75,-2.0,-6%
CCCC[C@@H]1CNC(=O)C(=O)N1CCCc1cc(OC)c(OC)c(OC)c1,0.6,2.8,-1.0,i,x,0.7,x
Cc1onc(-c2ccccc2)c1C(=O)N1CCN(CCc2ccccc2)CC1,1.0,x,7.5,x,0.66,2.9,4%
Cn1c(=O)c2c(nc(N3CCN(C(=O)c4ccco4)CC3)n2CCSc2ncccn2)n(C)c1=O,-0.8,-0.6,-1.6,x,0.66,-3.5,-1%
COc1ccc(CCNC(=O)c2nonc2N)cc1OC,3.3,x,-0.4,x,0.66,3.0,-1%
Cc1c(/C=N\NC(=O)c2cccc(F)c2)cnn1C,x,3.2,2.8,+,x,1.0,x
NC(=O)CC(NC(=O)Cc1ccc(Cl)cc1)c1ccc(NC2CCCCC2)c([N+](=O)[O-])c1 (centres undefined),0.5,-24,-5.1,i,0.7,4.0,x
COc1ccccc1-c1cnc(C(O)c2ccc(C)cc2C)[nH]1 (centres undefined),x,4.3,x,i,x,1.4,x
CCCN1CNc2c(c(=O)[nH]c(=S)n2-c2ccccc2Cl)C1,0.5,-5.2,x,i,0.73,5.4,x
CCN(CC)c1ccc([C@H]2[C@@H]3CCCC[C@]3(O)CCN2CC(=O)NCc2ccco2)cc1,4.8,1.8,-2.0,i,0.7,-3.1,28%
O=C(C1CCCO1)N1CCN(C(=S)Nc2cccc(Cl)c2)CC1 (centres undefined),5.9,x,24,x,0.66,-0.4,x
O=C(Nc1ccc(S(=O)(=O)N2CCCCC2)cc1)C1CC1,0.8,-0.7,u,i,0.64,0.2,x
Cc1ccc(CCNC(=O)C23CN(Cc4ccccc4)CC2C(c2cccc([N+](=O)[O-])c2)=NO3)cc1 (centres undefined),0.3,u,-0.4,i,0.71,-4.0,4%
COc1ccc(OCc2cc(C(=O)NC(C)Cc3ccccn3)no2)c(Cl)c1 (centres undefined),2.1,-2.7,6.5,i,0.61,1.8,x
CC(C)(C)NC(=O)NC(=O)CN1CCN(c2ccccc2)CC1,4.1,1.5,2.3,i,0.69,3.7,x
CCCN=C(N)/C(C(=O)OCC)=C(\O)c1ccc(OC)cc1,4.4,x,5.5,x,0.69,1.0,3%
COc1ccc(C(=O)NCC(=O)N/N=C/c2ccc(C)o2)cc1OC,x,-3.2,2.1,i,x,0.2,x
Cc1ccc(-n2ncc3c(NCc4ccccn4)ncnc32)c(C)c1,1.1,x,4.9,x,0.71,-0.6,6%
C=CCn1c(SCC(=O)NC2(C)CCS(=O)(=O)C2)nc2ccccc21 (centres undefined),0.0,-1.4,x,i,0.67,-2.8,x
CC(C)(C)OC(=O)N1CCC2(CC1)Oc1ccc(F)cc1C(=O)C21CC(c2cccnc2)=NO1 (centres undefined),-2.3,x,-0.4,x,0.65,-3.0,-2%
